Screening data deposited in PubChem BioAssay by Broad Institute.
Vaccinia inh: Vaccinia orthopox stage-specific inhibition; Vaccinia-infected cells, mCherry/Venus stage reporter fluorescence; hits give low values; some inactives read as strong as hits; activity change (mCherry), % (test concentration not listed); 0.01% of 89,000 active;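 active = mCherry past -33% and 40 or more points under the early reporter, replicates agreeing; inconclusive = past -33% without that gap or agreement; tested in A549 cells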;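 note: scaled between vehicle wells and reference inhibitor wells; 23 nL library stock went into each well; one replicate is shown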
Vaccinia inh Venus: also measured in Vaccinia inh; calls as there; activity change (Venus), %; measured here: Venus reporter, other viral stage;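 negative = less Venus signal; first of two replicates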
An asterisk follows results filed as active; u = inconclusive; x = no result given; & = joins results of further samples. An excerpt; the hit share may differ from the screen's.

SMILES	Vaccinia inh	Vaccinia inh Venus
COc1ccc(NC(=O)N(C)C[C@H]2OCCCC[C@@H](C)Oc3ccc(NC(=O)Nc4ccc(C(F)(F)F)cc4)cc3C(=O)N([C@@H](C)CO)C[C@@H]2C)cc1	-26	-12
CCC(=O)N1[C@@H]2Cn3c(ccc(C4=CCCC4)c3=O)[C@H]1[C@@H](C(=O)NCC1CCCCC1)[C@@H]2CO	-11	-6
C[C@@H]1CN([C@@H](C)CO)C(=O)c2cccc(NS(=O)(=O)c3ccccc3)c2O[C@H]1CN(C)S(=O)(=O)c1ccccc1	16	8
CCCN1C[C@@H](C)[C@@H](OC)CN(C)C(=O)c2cc(NC(=O)NC3CCCCC3)ccc2OC[C@H]1C	-7	-3
CN(C)CC#Cc1ccc([C@H]2[C@@H](CO)N3CCCCN(C(=O)CN(C)C)C[C@H]23)cc1	20	4
COc1ccccc1-c1ccc2c(c1)O[C@@H](CN(C)C(=O)c1ccncc1)[C@@H](C)CN([C@@H](C)CO)S2(=O)=O	12	7
C[C@@H]1CN([C@H](C)CO)C(=O)c2cc(-c3cncnc3)cnc2O[C@@H]1CN(C)Cc1ccncc1	15	3
Cc1noc(C)c1S(=O)(=O)Nc1cccc2c1O[C@H](CN(C)C(=O)Nc1ccc(C(F)(F)F)cc1)[C@H](C)CN([C@@H](C)CO)C2=O	-30	-21
CNC[C@H]1Oc2ccc(NS(=O)(=O)c3cccs3)cc2C(=O)N([C@H](C)CO)C[C@H]1C	-3	-5
CC(=O)N1[C@@H]2Cn3c(cccc3=O)[C@H]1[C@@H](C(=O)N[C@H](C)c1ccccc1)[C@@H]2CO	0	1
O=C(Nc1ccc(Cl)cc1)N1C[C@@H]2[C@H](c3ccccc31)[C@@H](CO)N2CC1CCCCC1	u	x
C[C@H]1CCCCO[C@H](CN(C)Cc2ccc3c(c2)OCO3)[C@@H](C)CN([C@@H](C)CO)C(=O)c2cc(N(C)C)ccc2O1	u	x
O=C(c1ccccc1)N1C[C@H]2[C@@H](c3ccccc31)[C@@H](CO)N2S(=O)(=O)c1ccccc1	4	-1
O=C(Cc1ccncc1)N1CCCCN2[C@H](CO)[C@@H](c3ccc(-c4ccncc4)cc3)[C@H]2C1	35	9
C[C@@H]1CCCCO[C@@H](CN(C)CC2CC2)[C@@H](C)CN([C@H](C)CO)C(=O)c2cc(NC(=O)c3ccncc3)ccc2O1	11	3
CO[C@H]1CN(C)C(=O)c2cc(NC(=O)NC3CCCCC3)ccc2OC[C@@H](C)N(CC2CC2)C[C@H]1C	-13	-5
CCC(=O)N1C[C@@H](O)COC[C@@H]2O[C@@H](CC(=O)NCc3ccc(Oc4ccccc4)cc3)CC[C@H]21	8	4
C[C@H](CO)N1C[C@H](C)[C@@H](CN(C)S(=O)(=O)c2cn(C)cn2)Oc2ccc(NS(=O)(=O)c3ccc(Cl)cc3)cc2CC1=O	6	5
CCS(=O)(=O)N[C@@H]1CC[C@@H](CC(=O)N2CCCCC2)O[C@@H]1CO	12	9
Cc1ccc(-c2ccc([C@@H]3[C@H]4CN(C(=O)CN5CCOCC5)CC(=O)N4[C@H]3CO)cc2)cc1	-9	-10
COc1cccc(CN2[C@@H]3CNC[C@H]2C3c2ccc(-c3cccc(OC)c3)cc2)c1 (stereo partly specified)	u	1
C[C@H]1CN([C@@H](C)CO)C(=O)c2cc(-c3cccnc3)cnc2O[C@H]1CN(C)S(C)(=O)=O	14	15
CO[C@H]1CN(C)C(=O)c2ccc(NC(=O)C3CCCCC3)cc2OC[C@@H](C)N(Cc2nccs2)C[C@@H]1C	-24	-18
C[C@H]1CN([C@@H](C)CO)C(=O)CCCn2nncc2CO[C@@H]1CN(C)C(=O)c1ccccc1	24	19
CNC[C@H]1Oc2ccc(NC(=O)Nc3ccc(C(F)(F)F)cc3)cc2C(=O)N([C@@H](C)CO)C[C@H]1C	-15	-9

Ten entries from above, set out differently:
smiles | Vaccinia inh | Vaccinia inh Venus
COc1ccc(NC(=O)N(C)C[C@H]2OCCCC[C@@H](C)Oc3ccc(NC(=O)Nc4ccc(C(F)(F)F)cc4)cc3C(=O)N([C@@H](C)CO)C[C@@H]2C)cc1 | -26 | -12
CCC(=O)N1[C@@H]2Cn3c(ccc(C4=CCCC4)c3=O)[C@H]1[C@@H](C(=O)NCC1CCCCC1)[C@@H]2CO | -11 | -6
C[C@@H]1CN([C@@H](C)CO)C(=O)c2cccc(NS(=O)(=O)c3ccccc3)c2O[C@H]1CN(C)S(=O)(=O)c1ccccc1 | 16 | 8
CCCN1C[C@@H](C)[C@@H](OC)CN(C)C(=O)c2cc(NC(=O)NC3CCCCC3)ccc2OC[C@H]1C | -7 | -3
CN(C)CC#Cc1ccc([C@H]2[C@@H](CO)N3CCCCN(C(=O)CN(C)C)C[C@H]23)cc1 | 20 | 4
COc1ccccc1-c1ccc2c(c1)O[C@@H](CN(C)C(=O)c1ccncc1)[C@@H](C)CN([C@@H](C)CO)S2(=O)=O | 12 | 7
C[C@@H]1CN([C@H](C)CO)C(=O)c2cc(-c3cncnc3)cnc2O[C@@H]1CN(C)Cc1ccncc1 | 15 | 3
Cc1noc(C)c1S(=O)(=O)Nc1cccc2c1O[C@H](CN(C)C(=O)Nc1ccc(C(F)(F)F)cc1)[C@H](C)CN([C@@H](C)CO)C2=O | -30 | -21
CNC[C@H]1Oc2ccc(NS(=O)(=O)c3cccs3)cc2C(=O)N([C@H](C)CO)C[C@H]1C | -3 | -5
CC(=O)N1[C@@H]2Cn3c(cccc3=O)[C@H]1[C@@H](C(=O)N[C@H](C)c1ccccc1)[C@@H]2CO | 0 | 1

(list continues)
SMILES	Vaccinia inh	Vaccinia inh Venus
Cc1ccc(-c2cnc3c(c2)C(=O)N([C@@H](C)CO)C[C@H](C)[C@H](CN(C)C(=O)Cc2ccccc2)O3)cc1	-10	-6
COCCNC(=O)C[C@@H]1C=C[C@H](NC(=O)NC2CCCCC2)[C@H](CO)O1	0	-2
C[C@@H]1CCCCO[C@@H](CN(C)S(=O)(=O)c2ccc(Cl)cc2)[C@@H](C)CN([C@@H](C)CO)C(=O)c2cc(NS(=O)(=O)c3cn(C)cn3)ccc2O1	18	10
C[C@H]1CCCCO[C@@H](CN(C)S(=O)(=O)c2ccc(Cl)cc2)[C@@H](C)CN([C@@H](C)CO)C(=O)c2cc(NS(=O)(=O)c3cn(C)cn3)ccc2O1	5	-6
O=C(C[C@@H]1C=C[C@H](NS(=O)(=O)c2ccccc2)[C@H](CO)O1)N1CCC(Cc2ccccc2)CC1	-13	-15
C/C=C/c1ccc([C@@H]2[C@@H](CO)N3CCCCN(S(=O)(=O)c4ccccc4)C[C@@H]23)cc1	14	6
CNC[C@H]1Oc2ccc(NC(=O)Nc3ccc(C(F)(F)F)cc3)cc2CC(=O)N([C@H](C)CO)C[C@@H]1C	-5	-2
CCCN(C)C[C@@H]1OCCCC[C@@H](C)Oc2ccc(NS(=O)(=O)c3cccs3)cc2C(=O)N([C@@H](C)CO)C[C@@H]1C	-3	-1
C[C@H]1CN([C@@H](C)CO)C(=O)CCCn2cc(nn2)CO[C@@H]1CN(C)C(=O)Nc1ccc(N2CCN(C)CC2)cc1	10	11
C[C@H](CO)N1C[C@H](C)[C@@H](CN(C)Cc2cncnc2)Oc2cc(Br)ccc2S1(=O)=O	26&16	8&2
C[C@@H]1CCCCO[C@@H](CN(C)C(=O)NC2CCCCC2)[C@H](C)CN([C@@H](C)CO)C(=O)c2cc(NC(=O)NC3CCCCC3)ccc2O1	-24	-13
CCO[C@@H]1OC(C(=O)Nc2ccccc2)=C[C@H](c2coc3ccccc3c2=O)[C@H]1CCCO	-16	-15
COc1ccc(S(=O)(=O)N[C@H]2CC[C@H](CC(=O)N3CCN(c4ccccc4)CC3)O[C@H]2CO)cc1	-2	0
C[C@@H]1CN([C@H](C)CO)C(=O)c2cc(NC(=O)Nc3ccc4c(c3)OCO4)ccc2O[C@@H](C)CCCCO[C@@H]1CN(C)Cc1ccc2c(c1)OCO2	u	x
COc1ccc(S(=O)(=O)Nc2ccc3c(c2)C(=O)N([C@@H](C)CO)C[C@H](C)[C@H](CN(C)S(=O)(=O)c2ccc(F)cc2)OCCCC[C@@H](C)O3)cc1	14	12
C[C@@H]1CN([C@@H](C)CO)C(=O)c2cc(-c3cccc(F)c3)cnc2O[C@@H]1CN(C)C(=O)c1cccc(F)c1	5	-1
C[C@H]1CN([C@@H](C)CO)S(=O)(=O)c2ccc(/C=C/c3ccccc3)cc2O[C@H]1CN(C)C(=O)c1ccc2c(c1)OCO2	u	x
C[C@H](CO)N1C[C@H](C)[C@@H](CN(C)S(C)(=O)=O)OCCCC[C@H](C)Oc2ccc(NC(=O)Nc3ccc4c(c3)OCO4)cc2C1=O	3	4
COc1ccccc1-c1cnc2c(c1)C(=O)N([C@H](C)CO)C[C@H](C)[C@H](CN(C)CC1CCOCC1)O2	6	-9
CO[C@H]1CN(C)C(=O)c2cc(C#N)ccc2OCC[C@@H]2CC[C@H](OC)[C@@H](CN(C)C(=O)[C@H]1C)O2	9	1
C[C@@H]1CN([C@H](C)CO)C(=O)c2cc(NC(=O)c3ccncc3)ccc2O[C@H]1CN(C)Cc1ccc2c(c1)OCO2	0	13
CC(C)OC(=O)N(C)C[C@@H]1OCc2ccccc2-c2c(n(C)c3ccccc23)C(=O)N([C@@H](C)CO)C[C@@H]1C	-14	-7
C/C=C/c1cnc2c(c1)C(=O)N([C@H](C)CO)C[C@@H](C)[C@H](CN(C)C(=O)Nc1ccccc1F)O2	18	10
C[C@@H]1CN([C@@H](C)CO)C(=O)c2cccc(NC(=O)C3CC3)c2O[C@@H]1CN(C)S(=O)(=O)c1ccccc1	-4	3
CO[C@H]1CN(C)C(=O)c2cc(NC(C)=O)ccc2OC[C@@H](C)N(C(=O)C2CCCCC2)C[C@H]1C	8	7
The list goes on.
SMILES	Vaccinia inh	Vaccinia inh Venus
C[C@@H]1CN([C@@H](C)CO)C(=O)c2cc(C3=CCCCC3)cnc2O[C@H]1CN(C)C(=O)Nc1ccc(F)cc1	-5	-5
C[C@@H]1CN([C@H](C)CO)C(=O)c2cc(C3=CCCCC3)cnc2O[C@@H]1CN(C)Cc1ccccn1	-8	-10
COc1ccc(CN(C)C[C@H]2Oc3c(NC(=O)c4ccc(-c5nccs5)cc4)cccc3C(=O)N([C@@H](C)CO)C[C@@H]2C)cc1	u	x
C[C@H](CO)N1C[C@H](C)[C@H](CN(C)Cc2ccc(C(=O)Nc3ccccc3N)cc2)Oc2c(NS(=O)(=O)c3cccs3)cccc2C1=O	5	7
O=C(C1CC1)N1CC(=O)N2[C@H](CO)[C@H](c3ccc(C#CC4CCCC4)cc3)[C@H]2C1	u	x
CN1C(=O)c2cc(NS(=O)(=O)c3ccccc3F)ccc2OC[C@@H]2O[C@H](CC(=O)NC3Cc4ccccc4C3)CC[C@@H]21	u	x
C[C@@H]1CN([C@@H](C)CO)C(=O)Cc2cc(NS(=O)(=O)c3cn(C)cn3)ccc2O[C@@H]1CN(C)S(=O)(=O)c1ccc(F)cc1	13	2
CN1CCN(C(=O)C[C@H]2C[C@@H]3c4cc(NC(=O)NC5CCCC5)ccc4O[C@@H]3[C@H](CO)O2)CC1	17	5
C[C@H](CO)N1C[C@H](C)[C@H](CN(C)Cc2ccc(-c3ccccc3)cc2)Oc2ccc(NC(=O)Nc3ccc(F)cc3)cc2CC1=O	-23	-12
CCNC(=O)C[C@@H]1CC[C@H](NC(=O)C2CCC2)[C@@H](CO)O1	5	2
COc1ccc2c3c([nH]c2c1)[C@@H](CO)N(C(=O)c1cccnc1)CC31CCN(C(=O)c2cccnc2)CC1	28	18
O=C(Cc1ccccn1)NCC[C@@H]1CC[C@@H](NC(=O)c2ccccc2F)[C@@H](CO)O1	3	2
C[C@@H]1CN([C@H](C)CO)C(=O)c2cc(C#CC(C)(C)O)cnc2O[C@H]1CN(C)C(=O)c1ccccc1F	-2	-4
C[C@H]1CN([C@@H](C)CO)C(=O)c2cc(NC(=O)Nc3ccc(C(F)(F)F)cc3)ccc2O[C@H]1CN(C)Cc1ccc2c(c1)OCO2	u	x
C[C@@H]1CCCCO[C@H](CN(C)C(=O)NC2CCCCC2)[C@@H](C)CN([C@H](C)CO)C(=O)c2cc(NS(=O)(=O)c3cccs3)ccc2O1	39	22
CCCNC(=O)N(C)C[C@H]1Oc2cc(C#C[C@@H](C)O)ccc2S(=O)(=O)N([C@H](C)CO)C[C@@H]1C	23	5
COc1ccc(NC(=O)Nc2ccc3c(c2)CC(=O)N([C@@H](C)CO)C[C@@H](C)[C@@H](CN(C)Cc2ccc4c(c2)OCO4)O3)cc1	-18	-9
O=C(CN1CCOCC1)N1CC[C@@H]2[C@H](CO)Nc3ccc(-c4ccc(F)cc4)cc3[C@@H]21	-3	-9
C[C@H]1CN([C@@H](C)CO)C(=O)c2cc(C#CC(C)(C)O)cnc2O[C@H]1CN(C)C(=O)C1CCOCC1	20	0
C/C=C/c1ccc2c(c1)O[C@@H](CN(C)C(=O)CC)[C@@H](C)CN([C@H](C)CO)S2(=O)=O	13	14
Cc1ccc(S(=O)(=O)Nc2ccc3c(c2)C(=O)N([C@@H](C)CO)C[C@@H](C)[C@H](CN(C)C(=O)NC(C)C)O3)cc1	15	13
CC=Cc1ccc2n(c1=O)C[C@H]1[C@H](CO)[C@@H](C(=O)NCc3cccc(F)c3)[C@@H]2N1S(C)(=O)=O (mixture of isomers)	12	6
C[C@H]1CN([C@@H](C)CO)C(=O)c2cc(C3=CCCC3)cnc2O[C@H]1CN(C)C(=O)CN1CCOCC1	2	0
CC(C)NC(=O)Nc1ccc2c(c1)CC(=O)N([C@H](C)CO)C[C@H](C)[C@@H](CN(C)CC1CC1)O2	15	1
C[C@H](CO)N1C[C@H](C)[C@H](CN(C)C(=O)Nc2ccc(F)cc2)Oc2c(NC(=O)C3CC3)cccc2C1=O	-6	-7
O=C(C[C@H]1CC[C@H](NC(=O)c2cccc(F)c2)[C@H](CO)O1)NCc1ccc(Oc2ccccc2)cc1	-29	-20
C[C@H](CO)N1C[C@H](C)[C@H](CN(C)C(=O)CC2CC2)Oc2cc(C#CC(C)(C)O)ccc2S1(=O)=O	6	8
C[C@H]1CN([C@@H](C)CO)C(=O)Cc2cc(NC(=O)Nc3ccc4c(c3)OCO4)ccc2O[C@H]1CN(C)Cc1ccc(Cl)c(Cl)c1	u	x
